Compound activity from PubChem BioAssay.
VCAM-1 imaging: suppression of endothelial VCAM-1 upregulation – imaging, high-content imaging, pooled HUVEC, TNFa stimulus (AID 456); 10,000 compounds, 0.2% hits; HUVEC TNFa-induced VCAM-1 surface expression, immunofluorescence imaging; numbers were filed only for top-ranked candidate wells; one-dose inhibition, % at 5 µM; IC50 in µM for titrated hits;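 active means top tenth filtered wells with inhibition above zero that passed visual or statistical confirmation; inactive means the rest, including hits rejected on review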;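 further: 0% = stimulated vehicle wells and 100% = unstimulated cells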
FPRL1 binder: human FPRL1 ligand, with FPR counter-screen; P25090; FPRL1-expressing cells, fluorescent ligand binding inhibition, flow cytometry; inhibition, %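 (tested at 6.7 µM)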; 24,000 compounds, 0.3% hits; AID 441;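 further: 0% = buffer alone and 100% = receptor blocker peptide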
Target sequence (P25090 whole entry, looked up): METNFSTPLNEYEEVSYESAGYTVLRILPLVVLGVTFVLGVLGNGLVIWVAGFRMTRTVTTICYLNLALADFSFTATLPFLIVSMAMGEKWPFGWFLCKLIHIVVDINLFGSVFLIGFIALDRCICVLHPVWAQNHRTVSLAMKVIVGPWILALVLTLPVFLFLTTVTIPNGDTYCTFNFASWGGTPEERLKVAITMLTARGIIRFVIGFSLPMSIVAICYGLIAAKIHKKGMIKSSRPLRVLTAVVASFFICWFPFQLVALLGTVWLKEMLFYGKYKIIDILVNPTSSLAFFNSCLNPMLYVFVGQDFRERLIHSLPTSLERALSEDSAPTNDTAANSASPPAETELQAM
FPR ligand: binds the human formylpeptide receptor FPR; P21462; FPR-expressing cells, fluorescent ligand binding, flow cytometry; inhibition, %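 (tested at 6.7 µM)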; 24,000 compounds, 0.74% hits; AID 440;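 further: 0% = buffer wells and 100% = receptor blocker peptide wells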
Target sequence (P21462 whole entry, looked up): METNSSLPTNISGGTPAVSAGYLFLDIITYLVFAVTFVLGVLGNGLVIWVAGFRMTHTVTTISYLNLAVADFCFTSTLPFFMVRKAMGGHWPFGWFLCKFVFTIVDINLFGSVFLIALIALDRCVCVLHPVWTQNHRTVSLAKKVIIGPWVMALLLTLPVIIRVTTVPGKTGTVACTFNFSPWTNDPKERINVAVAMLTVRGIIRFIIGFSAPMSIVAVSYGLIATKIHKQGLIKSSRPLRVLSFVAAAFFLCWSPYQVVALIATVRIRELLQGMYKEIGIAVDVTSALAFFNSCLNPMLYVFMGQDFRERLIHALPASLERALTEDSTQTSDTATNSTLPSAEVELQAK
VCAM-1 up imaging: enhancers of VCAM-1 display on endothelial cells, imaging, high-content imaging, pooled HUVEC, TNFa stimulus (AID 457) | Pooled HUVEC, TNFa-induced VCAM-1 immunofluorescence imaging; hits of this screen are not shown here | calls only | 10,000 compounds, 0.2% hits;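 active means a top-ranked rise in VCAM-1 staining upheld on image or statistical review; inactive means the rest, including candidates rejected on review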;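 further: compounds tested at 5 µM in the well; cells exposed to compound for 24 hours before fixing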
VCAM-1 inhibition: suppression of endothelial VCAM-1 upregulation – cell-based, plate reader, pooled HUVEC, TNFa stimulus (AID 454). HUVEC TNFa-induced VCAM-1 surface immunofluorescence, plate reader; numbers were filed only for top-ranked candidate wells. inhibition, % at 5 µM. 10,000 compounds, 0.2% hits;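 active means compound among top-ranked inhibitors of TNF-induced VCAM-1 adhesion protein staining, with the hit upheld by image or statistical review; inactive means the rest, including hits rejected on review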;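 further: 0% = TNFa with vehicle and 100% = cells without TNFa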
* = called active by the depositor; i = inactive; ? = inconclusive; · = no result given.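 How the source made its calls, unless noted: active means mean above 30%; inconclusive means self-fluorescent; inactive means the rest.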

Each structure is followed by: VCAM-1 imaging	FPRL1 binder	FPR ligand	VCAM-1 up imaging	VCAM-1 inhibition
CCOC(=O)CSc1ncnc2c1cnn2-c1ccc(C)cc1
→ i	6.0	-0.2	i	i
COc1ccc(-c2noc(CCCOc3ccccc3)n2)cc1OC
→ i	5.4	-5.9	i	i
Clc1ccc(Cl)c2sc(N3CCOCC3)nc12
→ ·	-8.1	-3.5	·	·
Cc1[nH]c2ccccc2c1Cc1nnc(SCC(N)=O)o1
→ ·	2.4	0.5	·	·
Cc1oc(-c2ccccc2Cl)nc1CSCC(=O)N1CCCC1
→ i	-1.1	0.0	i	i
CCOc1ccc(C2CC(c3cccc(OC)c3OC)n3nnnc3N2)cc1Cl (configuration not stated)
→ ·	-0.1	-3.7	·	·
Cc1ccc(C2C3CSCC=C3C(C#N)=C(N)C2(C#N)C#N)cc1 (configuration not stated)
→ ·	-25.1	-4.3	·	·
COc1ccc(OC)c(C2/C(=C(/O)c3cnn(-c4ccccc4)c3C)C(=O)C(=O)N2CCN(C)C)c1 (configuration not stated)
→ ·	-5.0	-6.5	·	·
CCOC(=O)n1ccc(C(=O)Nc2ccccc2F)n1
→ ·	6.3	-5.3	·	·
C=CCC(NCc1ccco1)c1ccc(OC)cc1OC (configuration not stated)
→ i	0.3	7.5	i	i
C=CCn1c(SCC(=O)N2CCN(c3ccc(F)cc3)CC2)nnc1-c1cccs1
→ ·	-2.5	7.7	·	·
NC(=O)C(Cc1ccccc1)NS(=O)(=O)c1ccc(N2CCCC2=O)cc1 (configuration not stated)
→ i	-4.4	-3.9	i	i
CCCCCNC(=O)c1ccc2c(=O)[nH]c3c(C(=O)NCC4CCCO4)sc(=S)n3c2c1 (configuration not stated)
→ ·	4.6	39.7*	·	·
O=C(C1CC1)N1CCC(c2nc(-c3ccc(S(=O)(=O)NCC4CCCO4)cc3)no2)CC1 (configuration not stated)
→ i	-6.6	-20.5	i	i
CCOc1ccc2nc(NC(=O)C(NS(=O)(=O)c3cccs3)C(C)C)sc2c1 (configuration not stated)
→ i	0.1	4.8	i	i
Cc1cc(C)cc(NC(=O)CN(C)S(=O)(=O)c2cnc[nH]2)c1
→ i	3.7	-8.8	i	i
CCOC(=O)C1CCN(C(=O)C2CCN(S(=O)(=O)N3CCCC3)CC2)CC1
→ ·	-1.8	3.4	·	·
CCN(CC)c1nc2nonc2nc1N(CC)CC
→ i	-3.5	0.0	i	i
CC(=O)N(C)c1ccc(NC(=O)c2cnn(C)c2)cc1
→ ·	-4.8	1.1	·	·
CN(Cc1ccccc1)Cc1nc2c(c(=O)n(C)c(=O)n2C)n1Cc1ccc(Cl)cc1
→ i	-2.2	-5.7	i	i
COc1ccc(OC)c(NC(=O)c2cc3n(n2)C(C(F)(F)F)CC(c2ccc4c(c2)OCO4)N3)c1 (configuration not stated)
→ ·	5.9	3.6	·	·
Cc1oc(-c2ccccc2F)nc1CS(=O)CC(=O)NCc1ccc2c(c1)OCO2 (configuration not stated)
→ ·	-2.7	10.1	·	·
COC(=O)c1cc(OC)c(OC)cc1NC(=O)CC1CCCCC1
→ i	-12.3	7.7	i	i
CCCCCn1c(=O)[nH]c2cc(C(=O)O)ccc2c1=O
→ ·	-12.0	-13.9	·	·
O=C(O)CCn1c(SCc2ccccc2)nc2ccccc21
→ i	4.8	1.6	i	i
CCN(CC)S(=O)(=O)c1ccc2c(c1)nc(SCn1nnc3ccccc3c1=O)n2CC
→ i	-4.6	3.8	i	i
COCC(C)NC(=O)c1cc(-c2ccccc2OC)on1 (configuration not stated)
→ ·	1.5	2.2	·	·
COc1cccc(-c2cc(C(=O)N3CCN(C(c4ccccc4)c4ccccc4)CC3)no2)c1
→ ·	10.1	14.2	·	·
O=C(Nc1ccc2c(c1)OCCO2)C1CCCN(S(=O)(=O)c2cccnc2)C1 (configuration not stated)
→ ·	1.1	-2.3	·	·
Cn1c(NC(=O)c2cc(-c3ccc4c(c3)OCO4)nc3ccccc23)cc(=O)n(C)c1=O
→ ·	-1.1	5.9	·	·

Additional compounds follow:
Each structure is followed by: VCAM-1 imaging	FPRL1 binder	FPR ligand	VCAM-1 up imaging	VCAM-1 inhibition
O=C(CSc1nnc(SCc2ccc(Cl)cc2)s1)N1CCN(C(=O)c2ccco2)CC1
→ i	-5.6	1.4	i	i
CC1C(O)=C(c2nc3ccccc3[nH]2)C(=N)N1c1ccccc1 (configuration not stated)
→ i	7.0	-7.5	i	i
Cc1ccc2c(c1)NC(=O)C(CC(=O)NCc1cccnc1)O2 (configuration not stated)
→ ·	3.1	3.4	·	·
COc1ccc(OC)c(-c2cc(C(=O)Nc3cc(C)n(Cc4ccc(Cl)cc4)n3)no2)c1
→ ·	21.2	2.7	·	·
N#Cc1ccccc1NCc1ccccc1
→ ·	-8.6	-14.0	·	·
CCCN1CCN(C(=O)c2cccc3c2C(=O)N(CCOC)C3)CC1
→ ·	4.3	-5.6	·	·
Cc1ccc(NC(=O)Cn2c(=O)n(CCCCC(=O)NCc3ccco3)c(=O)c3ccccc32)cc1
→ ·	28.4	0.6	·	·
O=C(Cn1c(=O)[nH]c2ccsc2c1=O)NC1CCCCC1
→ ·	-2.0	0.7	·	·
O=C(CCCSc1nc2ccccc2s1)NC1=NCCS1
→ i	-5.4	-3.2	i	i
COC(=O)CN1C(=O)COc2ccc(Cl)cc21
→ ·	0.2	-6.4	·	·
COc1ccc(-n2c(Cc3cccn3C)nnc2SCC(=O)NC2CCCC2)cc1
→ ·	2.1	-4.4	·	·
CCOC(=O)Nc1oc2ccccc2c(=O)c1CN1CCOCC1
→ ·	2.3	5.3	·	·
O=c1[nH]c(SCc2cccc(Cl)c2)nc2c1CCCC2
→ ·	1.3	2.0	·	·
COc1cccc(NC(=O)Nc2nnc(N3CCCCC3C)s2)c1 (configuration not stated)
→ ·	-7.5	0.1	·	·
CCOC(=O)c1cnc(-n2nc(C)cc2C)nc1Nc1cccc(C(C)=O)c1
→ i	9.0	4.6	i	i
Cn1c(=O)oc2cc(S(=O)(=O)Nc3cccc(F)c3)ccc21
→ ·	-4.8	-7.9	·	·
CC1CC(C)CN(C(=O)CCCn2c(=S)[nH]c3ccccc3c2=O)C1 (configuration not stated)
→ ·	-1.1	2.1	·	·
O=c1oc2c3c4c(cc2cc1-c1nc2ccccc2[nH]1)CCCN4CCC3
→ i	·	·	i	i
COc1ccc(-n2nc(C(=O)NCC(=O)NCc3ccco3)c3ccccc3c2=O)cc1Cl
→ ·	-1.3	9.1	·	·
CCOc1cc(C(=O)Nc2ncccn2)cc(OCC)c1OCC
→ i	-6.6	1.8	i	i
CCCn1cc(S(=O)(=O)CC(=O)NC2CCCCC2)c2ccccc21
→ ·	-4.2	3.0	·	·
O=C(CCCN1C(=O)c2ccccc2C1=O)Nc1c2c(nc3c1CCC3)CCC2
→ ·	-2.1	1.6	·	·
CCSc1nnc(NC(=O)C2CCCN(S(=O)(=O)c3cnc[nH]3)C2)s1 (configuration not stated)
→ i	-0.2	4.4	i	i
COc1c(C)cccc1C(=O)Nc1cc(-c2nn3c(C)nnc3s2)ccc1C
→ ·	-0.8	1.5	·	·
CCN1CCN(C(=O)Cn2ncc3ccsc3c2=O)CC1
→ i	4.0	-1.4	i	i
CCN(CC)C(=O)COc1ccc2oc(C)c(C(=O)OC(C)C)c2c1
→ i	3.5	-5.7	i	i
CCC(C(=O)Nc1ccccc1C(=O)N1CCCC1)N1C(=O)c2ccccc2C1=O (configuration not stated)
→ i	-6.3	2.5	i	i
Cc1ccc(CNC(=O)C2CCCN(c3nc4ccccc4o3)C2)cc1 (configuration not stated)
→ ·	-1.5	-3.5	·	·
COc1ccc(/C(O)=C2\C(=O)C(=O)N(c3cc(C)on3)C2c2cccc(OC)c2OC)cc1C (configuration not stated)
→ ·	3.9	4.7	·	·
Cc1ccc(OCC(=O)N2CCN(C(=O)CCC3CCCC3)CC2)cc1
→ i	-3.3	3.7	i	i

The listing continues:
Each structure is followed by: VCAM-1 imaging	FPRL1 binder	FPR ligand	VCAM-1 up imaging	VCAM-1 inhibition
CCOc1ccc(NC(=O)N(C2CCCCC2)C(C)c2ccncc2)cc1 (configuration not stated)
→ ·	-5.9	0.6	·	·
CCCCN(C)C(=O)c1ccc2c(c1)N(CC)C(=O)c1ccccc1S2(=O)=O
→ ·	-1.4	2.0	·	·
CCOC(=O)Cn1c(CN(Cc2ccccc2)Cc2ccccc2)nc2c1c(=O)[nH]c(=O)n2C
→ ·	-10.4	-0.1	·	·
C1=C(c2ccccc2)CCN(c2nc3ccccc3n3cnnc23)C1
→ ·	-3.8	-1.1	·	·
Cc1ccccc1Cn1cc(S(=O)(=O)CC(=O)Nc2nccs2)c2ccccc21
→ ·	-10.1	3.6	·	·
CCOC(=O)c1nnn(-c2ccccc2C#N)c1C
→ ·	0.5	7.8	·	·
CCN1CCN(C(=O)C2CCN(Cc3nc(-c4cccc(Cl)c4)oc3C)CC2)CC1
→ ·	2.8	-2.8	·	·
CCOc1ccccc1/C=c1\sc2ncnn2c1=O
→ ·	11.5	7.4	·	·
CC(=O)Nc1ccc(S(=O)(=O)N2CCN(C(C)CCc3ccccc3)CC2)cc1 (configuration not stated)
→ i	-6.0	-11.4	i	i
COc1ccccc1N1CCN(C(=O)N2CCOCC2)CC1
→ i	3.6	0.9	i	i
O=C(C1CCC1)N1CCc2cc(S(=O)(=O)NCCN3CCN(c4ccccc4F)CC3)ccc21
→ ·	-0.9	-0.6	·	·
COC(=O)CSc1ncccc1-c1nc2ccccc2[nH]1
→ i	5.5	-6.9	i	i
CCOC(=O)N1CCN(C(=O)c2cn(CC)c3cc(N4CCN(C)CC4)c(F)cc3c2=O)CC1
→ i	-0.2	8.5	i	i
Clc1ccc(Oc2nc(Oc3ccc(Cl)cc3)nc(N3CCOCC3)n2)cc1
→ ·	-1.0	-21.7	·	·
Clc1ccc(Cl)c(-c2ccc(/C=N/c3ncn[nH]3)o2)c1
→ i	-2.1	0.2	i	i
CC(=O)NC(Cc1c[nH]c2ccccc12)C(=O)OCC(=O)Nc1cc(C)on1 (configuration not stated)
→ i	3.9	-7.2	i	i
CCn1c(COc2cccc3ccccc23)nnc1SCC(N)=O
→ i	-5.1	-7.1	i	i
COc1cccc(C2N(c3cccc(Cl)c3)C(=O)C3CCCN32)c1 (configuration not stated)
→ ·	-6.4	-6.1	·	·
COc1cc2c(C(=O)NCCCN3CC(C)CC(C)C3)cn(CC(C)C)c(=O)c2cc1OC (configuration not stated)
→ ·	0.1	?	·	·
CC(=O)N1CCCc2cc(S(=O)(=O)NC(C(=O)NCc3ccc(C)cc3)C(C)C)ccc21 (configuration not stated)
→ ·	8.1	3.3	·	·
COc1cc(S(=O)(=O)NC2CCCCC2)ccc1Cl
→ i	-9.3	5.0	i	i
[O-][n+]1onc2c1CCc1c-2nn(-c2ccccc2Cl)[n+]1[O-]
→ ·	3.3	-7.1	·	·
CCN(CCCNC(=O)CNC(=O)Cn1cnc2ccccc2c1=O)c1cccc(C)c1
→ ·	-1.0	5.7	·	·
CCN(CC)CCCNC(=O)c1cc(-c2ccc(Cl)c(Cl)c2)on1
→ ·	-0.4	-5.3	·	·
O=C(C1CCCN(S(=O)(=O)c2cccc3nsnc23)C1)N1CC=C(c2ccccc2)CC1 (configuration not stated)
→ ·	-2.4	6.3	·	·
Cc1cccc(N2C(=O)CC(N3CCN(Cc4ccc(Cl)cc4)CC3)C2=O)c1 (configuration not stated)
→ i	4.6	-0.8	i	i
CCOC(=O)N1CCN(S(=O)(=O)c2cc(Br)cc3c2N(C(C)=O)C(C)C3)CC1 (configuration not stated)
→ ·	3.2	3.8	·	·
COc1nc(N(c2ccccc2)c2ccccc2)nc(-n2ccnc2)n1
→ ·	-2.0	6.7	·	·
C=CCn1c(SCC2=C(C(=O)OCC)C(C)NC(=O)N2)nnc1C1CCCCC1 (configuration not stated)
→ i	4.3	4.0	i	i
CC1=C(C)C(=O)C(CCCCC#CCCCC#CCO)=C(C)C1=O
→ i	-1.8	4.9	i	i

Carrying on:
Each structure is followed by: VCAM-1 imaging	FPRL1 binder	FPR ligand	VCAM-1 up imaging	VCAM-1 inhibition
O=C(NCc1cccnc1)c1cccc2c1C(=O)N(C1CCCCC1)C2
→ ·	-0.3	-2.5	·	·
COc1ccc(C(=O)N2CCN=C2SC)cc1OC
→ ·	-0.3	-1.3	·	·
CN(CCc1ccccn1)C(=O)CCNC(=O)Cn1cnc2ccccc2c1=O
→ i	0.1	-1.5	i	i
COc1ccc(-n2c(Cc3cccn3C)nnc2SCC(=O)Nc2ccc(C)cc2C)cc1
→ ·	-1.2	4.4	·	·
CCn1nc(NC(=O)c2cccnc2)c2cc3ccccc3nc21
→ i	-2.3	1.5	i	i
COc1ccccc1N(C(=O)NCc1ccccc1)C1=NCC(C)S1 (configuration not stated)
→ ·	-1.5	-7.2	·	·

This is a subset; count on the stated rates, not on these rows.
